UUG fidelity = alters start codon recognition fidelity in yeast; activity score, % at 18.7 µM; hit rate 0.13% among 350,000; AID 602363; S. cerevisiae UUG-firefly luciferase reporter, luminescence/redox ratio;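 active means replicate mean at a twofold rise or more, about +100% in these data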;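 further: firefly luciferase made from a UUG start codon reports start codon fidelity; reporter light over untreated wells divided by growth signal over untreated wells; some hits fall short of that in this replicate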
HIV Env fusion = HIV envelope-mediated fusion inhibition; HeLa-JRFL Env/CEM21 cell fusion, luciferase; AID 651610; hit rate 1.1% among 360,000; inhibition, % at 12.3 µM;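 active means mean replicate inhibition score of at least 50 and every replicate individually at or above 50; inconclusive means only one of the two criteria met; inactive means mean below 50 and not all replicates reaching 50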;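 further: 0% = plate neutral controls and 100% = maraviroc near 300 nM; one replicate is shown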
MT1-MMP act inh = MT1-MMP (human) activation inhibition | GFP/RFP ratio change, % at 20 µM | HT1080 RFP-PRO-GFP cells, GFP/RFP ratio fluorescence, overnight; percent of plate control window, DMSO zero | hit rate 0.061% among 360,000 | AID 651647;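 active means GFP/RFP ratio change of at least 30% with cell ATP level not reduced by more than half and red fluorescence within 50% of control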; further: strong numbers were not always called active
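Material: RFP-PRO-GFP reporter HT1080 cells. Dosing: single-point 20 µM compound, 1% DMSO. Controls: DMSO and RFP-L50D-GFP cell wells. Timing: cells overnight before dosing, compound overnight, 37 °C, 5% CO2. Measure: GFP/RFP fluorescence ratio.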
eIF4H inh = inhibitors of RNA binding by human eIF4H; eIF4H fluorescence polarization binding assay; hit rate 0.94% among 290,000; inhibition, % at 35 µM;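 active means 50% or more with normal probe brightness, or confirmed in later tests; inconclusive means above 50% with abnormal brightness, or retests that disagree; inactive means below 50% or failed in later tests; about a fifth of its hits are not listed in these tables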;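 further: calls also rest on retests at 20 µM and on dose response follow-up; 0% = protein and probe with vehicle and 100% = probe without protein; strong numbers were not always called active; many hits fall short of the cut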
Rce1 inh = yeast Ras-converting enzyme inhibition; Q03530; yeast membranes, quenched prenylated peptide cleavage fluorescence; calls only; hit rate 0.27% among 290,000; AID 2563;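 active means fall in fluorescence gain of 50% or more versus controls, with final raw signal at or below 3038400; inconclusive means same 50% fall but final raw signal above 3038400; inactive means fall in fluorescence gain under 50%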;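 further: plate controls were neutral control wells for no effect and wells lacking membranes for full effect; tested at 10 µM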
CSC inhib = cancer stem cell inhibition; hit rate 1.1% among 300,000; inhibition, % at 7.5 µM; AID 2717; cancer stem cell-like cells viability, luminescence;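 active means mean at 75% or more and at least half the replicates too; inconclusive means mean and replicates disagree; tested in HMLE shEcad cells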;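 further: 0% = median of negative and 100% = median of positive control wells; the first replicate is given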
PABP FP inh = blocks human PABP binding to poly(A) RNA; P11940; fluorescence polarization; hit rate 1% among 290,000; inhibition, % at 35 µM;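 active means 50% or more with normal probe brightness, or confirmed in later tests; inconclusive means above 50% with abnormal brightness, or retests that disagree; inactive means below 50% or failed in later tests; about a fifth of its hits are not listed in these tables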;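 further: calls also rest on retests at 20 µM and on dose response follow-up; controls were probe without protein and protein plus probe with vehicle; some compounds called inactive have numbers as strong as hits; many hits fall short of the cut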
Target sequence (P11940 whole entry, looked up): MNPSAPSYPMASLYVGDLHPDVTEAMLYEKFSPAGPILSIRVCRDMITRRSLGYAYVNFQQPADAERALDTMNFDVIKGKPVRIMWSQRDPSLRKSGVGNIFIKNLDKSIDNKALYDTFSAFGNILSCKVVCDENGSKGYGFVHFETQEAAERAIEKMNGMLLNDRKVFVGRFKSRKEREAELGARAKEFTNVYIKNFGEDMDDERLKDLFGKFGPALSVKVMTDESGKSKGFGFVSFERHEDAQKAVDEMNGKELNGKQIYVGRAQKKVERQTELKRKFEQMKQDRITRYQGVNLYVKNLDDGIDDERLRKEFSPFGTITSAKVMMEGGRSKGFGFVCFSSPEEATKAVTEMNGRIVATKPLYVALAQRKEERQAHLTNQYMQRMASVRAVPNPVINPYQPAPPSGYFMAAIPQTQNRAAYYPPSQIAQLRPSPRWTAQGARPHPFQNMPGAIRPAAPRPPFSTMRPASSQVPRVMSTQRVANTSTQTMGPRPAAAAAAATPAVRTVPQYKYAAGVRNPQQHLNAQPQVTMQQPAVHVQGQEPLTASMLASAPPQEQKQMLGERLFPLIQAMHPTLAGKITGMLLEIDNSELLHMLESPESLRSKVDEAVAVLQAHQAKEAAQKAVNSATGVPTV
MT1-MMP act inh RFP = also measured in MT1-MMP act inh; calls as there; RFP signal change, %; measured here: RFP expression control read;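 0 = vehicle wells; hits needed this value within 50% of zero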
Starred values were filed as active, the others as inactive; & = joins results of further samples. Only part of the results is shown (hit frequency here may not be typical).

C[C@@H]1CN([C@H](C)CO)C(=O)CCCn2nncc2CO[C@@H]1CN(C)C(=O)c1ccccc1 was read as UUG fidelity -14&2, HIV Env fusion 5, MT1-MMP act inh 0 and MT1-MMP act inh RFP 8.
CCCC(=N)C1=C(O)CC(CC(C)SCC)CC1=O (stereo not given) was read as UUG fidelity -10, MT1-MMP act inh 0, eIF4H inh -2, Rce1 inh inactive, CSC inhib -18, PABP FP inh 14 and MT1-MMP act inh RFP 0.
For CCOC(=O)C1=C(C)NC(C)=C(C(=O)OCC)C1C(=O)OCC(=O)NCc1ccc(F)cc1 the results were UUG fidelity 11, HIV Env fusion -64, MT1-MMP act inh -7, CSC inhib -5 and MT1-MMP act inh RFP -5.
For O=C(Nc1ccccc1C(F)(F)F)c1ncn[nH]1 the results were HIV Env fusion -4, MT1-MMP act inh 4, eIF4H inh -10, Rce1 inh inactive, CSC inhib -9, PABP FP inh 2 and MT1-MMP act inh RFP 8.
`Cc1ccccc1-c1cc2nc(C)c(C)c(=O)n2[nH]1` gave UUG fidelity -5, HIV Env fusion 1, MT1-MMP act inh 3, eIF4H inh -8, Rce1 inh inactive, CSC inhib -17, PABP FP inh 11 and MT1-MMP act inh RFP -2.
For O=C(COC(=O)c1ccc(N2CCCC2=O)cc1)Nc1ccccc1 the results were UUG fidelity -10, MT1-MMP act inh -1, CSC inhib -6 and MT1-MMP act inh RFP 0.
For COc1ccccc1-c1cc(C(=O)Nc2cccnc2)no1 the results were UUG fidelity -23, HIV Env fusion -377, MT1-MMP act inh 7, eIF4H inh -11, Rce1 inh inactive, CSC inhib 72, PABP FP inh 0 and MT1-MMP act inh RFP -7.
Screening c1ccc(CSC2=NNC(c3ccccn3)S2)cc1 (stereo not given) returned HIV Env fusion 6, MT1-MMP act inh -1, eIF4H inh 11, Rce1 inh inactive, CSC inhib 125*, PABP FP inh 4 and MT1-MMP act inh RFP -3.
Screening CCOc1cccc(CNCCSc2nnnn2C)c1 returned UUG fidelity -9, HIV Env fusion 10, MT1-MMP act inh 3, eIF4H inh -2, Rce1 inh inactive, CSC inhib -7, PABP FP inh 10 and MT1-MMP act inh RFP -1.
CNC(=O)c1ccc(-n2nc(C)cc2-c2ccccc2)cc1 was read as UUG fidelity -36, HIV Env fusion 32, MT1-MMP act inh 0, eIF4H inh -10, Rce1 inh inactive, CSC inhib -29, PABP FP inh 0 and MT1-MMP act inh RFP 1.
`Cc1ccc(NC(=S)NNc2ncc(C(F)(F)F)cc2Cl)cc1` gave UUG fidelity -33, HIV Env fusion 3, MT1-MMP act inh 1, eIF4H inh 10, Rce1 inh inactive, CSC inhib -4, PABP FP inh -3 and MT1-MMP act inh RFP -5.
`O=C(O)c1ccc2c(=O)[nH]c(CCl)nc2c1` gave UUG fidelity -10, HIV Env fusion 4, MT1-MMP act inh 3, eIF4H inh 0, Rce1 inh inactive, CSC inhib -6, PABP FP inh -8 and MT1-MMP act inh RFP 8.
`Cc1ccc(CSCCNS(C)(=O)=O)cc1` gave UUG fidelity -20, HIV Env fusion -49, MT1-MMP act inh 3, eIF4H inh -8, Rce1 inh inactive, CSC inhib 10, PABP FP inh -6 and MT1-MMP act inh RFP 1.
Screening COc1cc2c(cc1NC(=O)Nc1ccc(C)cc1)oc1ccccc12 returned UUG fidelity -1, HIV Env fusion 2, MT1-MMP act inh 0, eIF4H inh -5, Rce1 inh inactive, CSC inhib 88*, PABP FP inh 6 and MT1-MMP act inh RFP 5.
Screening CCCOc1ccccc1C1NC(=O)NC(C)=C1C(=O)OCCOCC (stereo not given) returned UUG fidelity -2, MT1-MMP act inh 6, eIF4H inh -1, Rce1 inh inactive, CSC inhib -7, PABP FP inh -11 and MT1-MMP act inh RFP 0.
O=C(Nc1nc(C2C3CC4CC(C3)CC2C4)cs1)c1cc2cc([N+](=O)[O-])ccc2oc1=O (stereo not given) was read as UUG fidelity -6, HIV Env fusion -5, MT1-MMP act inh -8, eIF4H inh -3, Rce1 inh inactive, CSC inhib -4, PABP FP inh 4 and MT1-MMP act inh RFP -20.
`NS(=O)(=O)c1cccc(NC(=O)Cn2nc(C(=O)O)c3ccccc3c2=O)c1` gave UUG fidelity -8, HIV Env fusion -10, MT1-MMP act inh -3, eIF4H inh -1, Rce1 inh inactive, CSC inhib 1, PABP FP inh 11 and MT1-MMP act inh RFP -2.
O=C(CCc1nc2ccccc2c(=O)[nH]1)Nc1cccc(S(=O)(=O)N2CCCCC2)c1 was read as UUG fidelity 0, MT1-MMP act inh 3, Rce1 inh inactive, CSC inhib -3 and MT1-MMP act inh RFP -5.
CC1=NN(c2ccccc2)C(=O)C1CCC#N (stereo not given) was read as UUG fidelity -23, HIV Env fusion inconclusive, MT1-MMP act inh -2 and MT1-MMP act inh RFP -5.
Screening c1ccc(CCCNCCCn2cnc3c(OCc4ccccc4)ncnc32)cc1 returned UUG fidelity -13, HIV Env fusion -26, MT1-MMP act inh -2 and MT1-MMP act inh RFP -2.
CC(=O)c1cccc(-c2ccnc3c2CC(C(=O)Nc2ccccc2)O3)c1 (stereo not given) was read as UUG fidelity -4, HIV Env fusion 5, MT1-MMP act inh 4 and MT1-MMP act inh RFP -5.
`COc1ccc(CCCc2nnc(SCC(=O)Nc3ccc(OC)cc3)o2)cc1` gave UUG fidelity -15, HIV Env fusion -7, MT1-MMP act inh 0, eIF4H inh -4, Rce1 inh inactive, CSC inhib -11, PABP FP inh 0 and MT1-MMP act inh RFP 0.
For Cc1ccc(NC(=O)CCC(=O)c2ccc(F)cc2)cc1Cl the results were UUG fidelity -15, MT1-MMP act inh 2, eIF4H inh -7, Rce1 inh inactive, CSC inhib -6, PABP FP inh -1 and MT1-MMP act inh RFP 5.
CS(=O)(=O)N(CC(=O)Nc1ccc(F)cc1)C1CCCCC1 was read as UUG fidelity -13, HIV Env fusion 7, MT1-MMP act inh -1, eIF4H inh 2, Rce1 inh inactive, CSC inhib -11, PABP FP inh 5 and MT1-MMP act inh RFP 3.
For COCCOC(=O)/C=C1/NC(=O)CS1 the results were UUG fidelity -20, HIV Env fusion -3, MT1-MMP act inh 0, eIF4H inh -2, Rce1 inh inactive, CSC inhib -10, PABP FP inh 2 and MT1-MMP act inh RFP 2.
Screening COc1ccc(S(=O)(=O)N2CCC(N3CCN(Cc4ccccc4)CC3)CC2)cc1 returned HIV Env fusion -8, MT1-MMP act inh -2, eIF4H inh -2, Rce1 inh inactive, CSC inhib 19, PABP FP inh -1 and MT1-MMP act inh RFP 0.
For O=C(CCN1CCN(c2ccccc2F)CC1)Nc1ccccc1F the results were UUG fidelity -16, MT1-MMP act inh 6, eIF4H inh inconclusive, Rce1 inh inactive, CSC inhib 8, PABP FP inh inconclusive and MT1-MMP act inh RFP 2.
Screening O=S(=O)(Nc1cccc(-c2nc3cccnc3s2)c1)c1cccs1 returned HIV Env fusion -12, MT1-MMP act inh 2, eIF4H inh 6, Rce1 inh inactive, CSC inhib 5, PABP FP inh 0 and MT1-MMP act inh RFP -1.
Screening Cn1c(=O)c2c(ncn2CC(=O)OCC(=O)Nc2ccccc2)n(C)c1=O returned HIV Env fusion -11, MT1-MMP act inh -2, eIF4H inh -12, Rce1 inh inactive, CSC inhib -8, PABP FP inh -14 and MT1-MMP act inh RFP 2.
`C=CCNc1ncnc2c1ncn2[C@H]1CN(Cc2ccco2)C[C@@H](CO)O1` gave UUG fidelity -6, HIV Env fusion 8, MT1-MMP act inh -3 and MT1-MMP act inh RFP 6.
COc1cccc(C(=O)Nc2cccc(-c3ccc4nncn4n3)c2)c1OC was read as UUG fidelity -19, HIV Env fusion 3, MT1-MMP act inh 14, eIF4H inh 1, Rce1 inh inactive, CSC inhib -17, PABP FP inh -7 and MT1-MMP act inh RFP 4.
Screening Cc1ccc(C2=NN(C(=O)CCC(=O)O)C(c3ccc4c(c3)OCO4)C2)cc1 (stereo not given) returned UUG fidelity -4, HIV Env fusion -9, MT1-MMP act inh 2, eIF4H inh -12, Rce1 inh inactive, CSC inhib -14, PABP FP inh -12 and MT1-MMP act inh RFP -2.
`CC(c1ccco1)N(C(=O)c1cccs1)c1ccccn1` (stereo not given) gave UUG fidelity -28, MT1-MMP act inh 4, eIF4H inh 4, Rce1 inh inactive, CSC inhib -3, PABP FP inh 4 and MT1-MMP act inh RFP 4.
CCCCN(C(=O)c1ccc2c(c1)OCO2)c1ccccc1 was read as HIV Env fusion 14, MT1-MMP act inh 1, eIF4H inh 8, Rce1 inh inactive, CSC inhib -9, PABP FP inh 1 and MT1-MMP act inh RFP 4.
For CCSCCc1nnc(NC(=O)Nc2cccc(C(F)(F)F)c2)s1 the results were HIV Env fusion 70*, MT1-MMP act inh -35, eIF4H inh -6, Rce1 inh inactive, CSC inhib 27, PABP FP inh 7 and MT1-MMP act inh RFP -40.
For CCN(CC)C(=O)n1cnc(-c2ccccc2)c1-c1ccccc1 the results were HIV Env fusion 12, MT1-MMP act inh -2, eIF4H inh 10, Rce1 inh inactive, CSC inhib 55, PABP FP inh -11 and MT1-MMP act inh RFP -2.
For CCS(=O)(=O)c1nc(S(=O)(=O)c2ccc(Cl)cc2)c(NCCN2CCOCC2)s1 the results were UUG fidelity -2, HIV Env fusion 10, MT1-MMP act inh -1, eIF4H inh -1, Rce1 inh inactive, CSC inhib 3, PABP FP inh 2 and MT1-MMP act inh RFP 5.
`CC(C(=O)OCc1nnc(-c2ccccc2)o1)N1C(=O)C2CCCCC2C1=O` (stereo not given) gave UUG fidelity -1, HIV Env fusion -10, MT1-MMP act inh 3, eIF4H inh -4, Rce1 inh inactive, CSC inhib -2, PABP FP inh -4 and MT1-MMP act inh RFP 2.
O=C(Cn1cc2c(n1)CCCCC2)Nc1ccccc1Br was read as HIV Env fusion -4, MT1-MMP act inh -1, eIF4H inh -3, Rce1 inh inactive, CSC inhib 13, PABP FP inh -2 and MT1-MMP act inh RFP -6.
O=C(O)c1ccc(-n2nnnc2Oc2ccccc2C(=O)N2CCOCC2)cc1 was read as UUG fidelity -7, HIV Env fusion -16, MT1-MMP act inh -4, eIF4H inh -8, Rce1 inh inactive, CSC inhib -4, PABP FP inh 0 and MT1-MMP act inh RFP 1.
Screening O=[N+]([O-])c1cccc(/C=C2\CCC(/C=N/Nc3ccc4ccccc4n3)=C2N2CCOCC2)c1 returned HIV Env fusion 0, MT1-MMP act inh 2, eIF4H inh -3, Rce1 inh inactive, CSC inhib -2, PABP FP inh 3 and MT1-MMP act inh RFP 5.
CCCc1nc(Cl)c(C#N)c2c1CCCC2 was read as HIV Env fusion 31, eIF4H inh -10, Rce1 inh inactive, CSC inhib -10 and PABP FP inh -6.
O=C(Nc1ccccc1N1CCCCC1)c1ccccc1F was read as UUG fidelity -23, HIV Env fusion 3, MT1-MMP act inh -5, eIF4H inh 12, Rce1 inh inactive, CSC inhib -2, PABP FP inh -2 and MT1-MMP act inh RFP 1.
`CC(C)N(CCO)C(=O)CCc1nnc(Cc2cccc(C(F)(F)F)c2)o1` gave UUG fidelity -12, HIV Env fusion -4, MT1-MMP act inh -4, eIF4H inh 3, Rce1 inh inactive, CSC inhib -9, PABP FP inh -8 and MT1-MMP act inh RFP 4.
`Cc1ccc(-c2cc(C(F)(F)F)n3ncc(C(=O)N4CCCc5ccccc54)c3n2)cc1` gave UUG fidelity -4, MT1-MMP act inh 9, eIF4H inh -5, Rce1 inh inactive, PABP FP inh 1 and MT1-MMP act inh RFP 3.
`C/C(=N\NC(=O)C1CCCN(S(=O)(=O)c2ccccc2)C1)c1cccnc1` (stereo not given) gave UUG fidelity -3, MT1-MMP act inh 0, eIF4H inh 0, Rce1 inh inactive, CSC inhib -10, PABP FP inh -1 and MT1-MMP act inh RFP -1.

Source: PubChem (several laboratories)
